# Sfp inh: qHTS Assay for Inhibitors of Bacillus subtilis Sfp phosphopantetheinyl transferase (PPTase). Biochemical Sfp PPTase activity, qHTS. 4'-phosphopantetheinyl transferase ffp (Bacillus subtilis), Q9F4F7. Potency, µM, without a hit: max response, negative = inhibition, most hits filed as inhibitors. 3.5% of 310,000 active. AID 1490, 2009; active = well fitted inhibition curve with a large enough effect; inconclusive = small, poorly fitted or top-dose-only effect, or another doubt; inactive = no such curve, though single readings can be large or run the other way;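 note: the enzyme is Sfp with the accession as filed and its product quenches rhodamine fluorescence; potency is the fitted concentration of half-maximal effect; 0% = enzyme reaction without inhibitor and -100% = no enzyme wells; top concentration of the series not given in the record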
#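 Reaction rates are the 30-min fluorescence difference (ex 525, em 598 nm) in wells containing 15 nM Sfp, 5 uM rhodamine-CoA and 12.5 uM BHQ-2-YbbR at pH 7.6 with 10 mM MgCl2.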
# gsp agonist: qHTS for Agonist of gsp, the Etiologic Mutation Responsible for Fibrous Dysplasia/McCune-Albright Syndrome: qHTS; gsp mutant cells, cAMP HTRF, 30 min; control for the full effect not named in the record; Potency, µM (highest dose often 76.9 µM), without a hit: at the top dose activation (cAMP increase), hits mostly activators; 0.13% of 340,000 active; active = well fitted activation curve with a large enough effect; inconclusive = small, poorly fitted or top-dose-only effect, or another doubt; inactive = no such curve, though single readings can be large or run the other way; cell line not stated here;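 note: phosphodiesterase inhibitor Ro 20-1724 added with compounds to block cAMP breakdown; potency is the fitted concentration of half-maximal effect; nearly all actives have a fitted effect of over 60% in size; about a fifth of the inactives were tested at one dose only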
#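 Cells in DMEM/10% FBS with G418 were pretreated with compounds in DMSO plus […] (300 uM stock) for 30 min at 37C. cAMP was measured by HTRF (cAMP-d2 plus anti-cAMP antibody-K) after 30 min at room temperature.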
# ClpP mod: qHTS Assay for Activators of ClpP; purified B. subtilis ClpP, FRET peptide cleavage, 20 min; Potency, µM (top dose mostly 57.5 µM), for the others: top-dose activity change, negative = active; 1.9% of 340,000 active; AID 651965, 2013; active = well fitted falling curve with a large enough effect; inconclusive = small, poorly fitted or top-dose-only effect; inactive = no such curve, though single readings can be large or run the other way; note: potency is the fitted concentration of half-maximal effect; the source files actives as falling curves though it sought activators and does not explain the sign; nearly all actives have a fitted effect of over 65% in size; many hits overshoot -100%
# Target sequence (P80244 whole entry, looked up): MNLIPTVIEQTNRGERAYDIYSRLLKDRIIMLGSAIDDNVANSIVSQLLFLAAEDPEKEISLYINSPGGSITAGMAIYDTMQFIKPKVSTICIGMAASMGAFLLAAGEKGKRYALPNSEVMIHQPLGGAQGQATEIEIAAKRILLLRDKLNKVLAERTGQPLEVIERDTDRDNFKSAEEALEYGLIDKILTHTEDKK
#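 Purified B. subtilis ClpP, 10 microg/mL final in Tris/HCl pH8 with KCl, BSA, glycerol and Tween-20, cleaved an Abz/nitrotyrosine-quenched decapeptide. Fluorescence (ex 320, em 430) was read at 0 and 20 min at room temperature. Delta was normalized to 5.8 microM ADEP and DMSO/no-enzyme controls.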
# gsp antag: qHTS for Antagonists of gsp, the Etiologic Mutation Responsible for Fibrous Dysplasia/McCune-Albright Syndrome: qHTS; gsp-mutant cells, cAMP HTRF, 30 min; control for the full effect not named in the record; 0.4% of 340,000 active; AID 624288, 2012; Potency, µM (doses to about 76.9 µM), for the others: at the highest dose activity change, negative = inhibition, usual class: inhibitors; active = falling curve of any shape with a large fitted effect; inconclusive = falling curve, mostly with a smaller effect; inactive = flat or rising curve; cell line not stated here;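 note: intracellular cAMP measured with PDE inhibitor Ro 20-1724 present during compound exposure; potency is the fitted concentration of half-maximal effect; % is set by controls: 0 for no effect and ±100 for the full control effect; nearly all actives have a fitted effect of over 65% in size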
#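 HTRF cAMP read-out (cAMP-d2 plus anti-cAMP antibody-K in lysis buffer, 30 min RT). Before lysis, cells are exposed to compounds with […] for 30 min at 37C in DPBS containing Ca/Mg, BSA and Tween 20.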
# Menin MLL FP FL: qHTS Assay for Inhibitors Targeting the Menin-MLL Interaction in MLL Related Leukemias: Competition With Fluorescein Labeled MLL-derived Peptide; FP activity change, % at 61.4 µM; Fluorescence polarization, fluorescein-MLL peptide displacement from menin; 290,000 tested, under 10 active; inconclusive = falling polarisation curve, or a change in total fluorescence; inactive = total fluorescence flat and polarisation flat or rising; no compound was filed as active; the % refers to the polarisation; negative = inhibition;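 note: % of control where 0% means no effect; inhibitors lower the polarisation; unlabelled MLL peptide was the positive control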
# PINK1 expr mod: A Quantitative High throughput Screen to Identify Chemical Modulators of PINK1 Expression; PINK1 immunofluorescence, high-content cytometry, 24 h; Potency, µM (series often up to 76.6 µM), inactives show at the top dose activation (PINK1 increase), most hits filed as activators; 0.2% of 410,000 active; AID 624263, 2012; active = well fitted activation curve with a large enough effect; inconclusive = small, poorly fitted or top-dose-only effect; inactive = flat fitted curve, though single readings scatter; cell line not stated here;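 note: potency is the fitted concentration of half-maximal effect; % of control where 0% means no effect; nearly all actives have a fitted effect of over 65% in size; a mitochondrial uncoupler was the plate control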
#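 PINK1 protein, normally rapidly degraded, was detected by immunofluorescence after 24 hour compound treatment of a stable cell line. Titration data (5 concentrations) came from laser-scanning cytometry, with CCCP-treated wells as controls.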
# D2 ag: Beta-Arrestin HTS for Positive Allosteric Modulators of the Human D2 Dopamine Receptor: Agonists | D(2) dopamine receptor (Homo sapiens), P14416 | DiscoveRx PathHunter D2 beta-arrestin, luminescence, 90 min; 100% = 57 uM dopamine signal | activation, % (test concentration not listed) | 0.084% of 360,000 active; in the data active = activation above about 40%; inconclusive = about 15% to 40%; inactive = below about 15%; note: compound concentration not given in the record; the text of the record calls up to 30% inactive
# Target sequence (P14416 whole entry, looked up): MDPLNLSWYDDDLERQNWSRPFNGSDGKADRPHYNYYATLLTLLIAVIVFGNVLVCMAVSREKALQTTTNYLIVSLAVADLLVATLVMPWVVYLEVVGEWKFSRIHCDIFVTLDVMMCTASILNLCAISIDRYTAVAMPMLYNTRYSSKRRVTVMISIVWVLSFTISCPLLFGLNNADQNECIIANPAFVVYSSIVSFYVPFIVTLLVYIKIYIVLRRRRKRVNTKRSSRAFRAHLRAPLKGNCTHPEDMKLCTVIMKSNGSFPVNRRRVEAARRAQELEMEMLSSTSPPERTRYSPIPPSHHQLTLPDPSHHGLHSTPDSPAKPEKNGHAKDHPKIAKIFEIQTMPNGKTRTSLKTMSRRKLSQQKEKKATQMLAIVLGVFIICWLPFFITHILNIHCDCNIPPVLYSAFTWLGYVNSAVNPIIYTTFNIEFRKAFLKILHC
#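 DiscoveRx PathHunter D2 beta-arrestin cells (2,100/well) attached overnight, then compound-stimulated 90 min at 37 C in HBSS/10 mM HEPES/0.1% Tween-20 buffer; beta-galactosidase complementation read by luminescence after 1 h at ambient temperature. Dopamine 57 uM final (EC100) as control.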
# An asterisk follows results filed as active; ? = inconclusive; nt = not tested or not shown; & = joins results of further samples; [ ] = dose if it differs, or a comment. Rows are unselected, and some 5.1% of all compounds hit somewhere here.
SMILES,Sfp inh,gsp agonist,ClpP mod,gsp antag,Menin MLL FP FL,PINK1 expr mod,D2 ag
CC(=O)OCC1=C(C(=O)O)N2C(=O)C(NC(=O)COc3ccc(F)cc3)C2SC1 (stereo not drawn),nt,-9%[15.4 µM],nt,6%,nt,-1.7%,-7.9
COc1ccc(NC(=O)c2c(C)noc2C)cc1S(=O)(=O)N1CCCCC1,nt,-30%,-3.5%,nt,nt,-1.4%,-4.9
CC(C)C(NC(=O)c1ccco1)C(=O)NC1CCCCCC1 (stereo not drawn),1%,1%,-1.3%,2%,nt,0.1%,-2.9
CCOC(=O)N1CCC(N2C(=O)c3ccccc3C2Nc2c(C)cccc2C)CC1 (stereo not drawn),7%,26%,-0.2%,-5%,3.0,-0.1%,-3.5
Cc1cc(C)cc(NC(=O)C(=O)NCCCN2CCOCC2)c1,15%,7%[15.4 µM],1.4%,17%,-2.7,1.9%&-4.5%,-3.5
Nc1cccc(C(=O)c2ccccc2C(=O)O)c1,nt,2%,nt,11%,nt,0.5%,0.0
COc1ccc(NC(=O)CN(Cc2ccccc2)S(C)(=O)=O)cc1OC,-27%,-35%[inhibitor],-1.5%,9%,8.2,1.0%,-0.1
CCc1ccccc1NS(=O)(=O)c1ccc2c(c1)NC(=O)CC(=O)N2,7%,-34%[inhibitor],-1.6%,24%,1.2,1.4%,1.0
Cc1cccc(NC(=S)N(CCN(C)C)C(C)c2ccccn2)c1 (stereo not drawn),3%,-10%,-3.6%,5%,1.6,1.2%[38.3 µM],-2.1
O=C(Nc1cc(Cl)cc(Cl)c1)N1CCN(C(=O)C2CCCO2)CC1 (stereo not drawn),6%,-4%[15.4 µM],-1.1%,3%,nt,0.2%,-2.9
COc1ccc(CCNC(=O)CCC(=O)N2CC(C)Oc3ccccc32)cc1OC (stereo not drawn),14%,-5%,-4.1%,2%,-4.3,1.2%,-5.7
COc1ccccc1N1CCN(C(=O)CSc2nc(C)cc(=O)[nH]2)CC1,-30%,3%,1.6%&-1.9%,5%,4.2,-1.1%,-2.4
CSCCC(NS(=O)(=O)c1ccc2c(c1)c(=O)n(C)c(=O)n2C)C(=O)NC1CCN(Cc2ccccc2)CC1 (stereo not drawn),8%,-12%[15.4 µM],nt,-4%,1.0,3.0%,-1.5
Cc1ccc(S(=O)(=O)Nc2ccccc2N(C)S(=O)(=O)c2ccc(C)cc2)cc1,nt,nt,-2.7%,-9%,nt,-0.7%,-1.3
CCn1cc(C(=O)NC2CCCCC2)c(=O)c2cc(S(=O)(=O)N(C)C)ccc21,-1%,-37%[inhibitor],1.7%,-3%,0.8,0.5%,-4.8
CC(N)c1csc(Nc2nncc3ccccc23)n1 (stereo not drawn),nt,nt,-4.6%,nt,nt,2.4%,-0.9
CCCC12CN3CCN(CC(C3)/C1=N\NC(=O)c1ccccc1Cl)C2,-5%,0%[15.4 µM],nt,10%,-0.2,0.1%,-5.4
Cc1cccc(C)c1NCC(=O)N1CCN(Cc2ccccc2)CC1,10%,-2%[15.4 µM],nt,3%,6.1,1.5%,1.6
CCN(CC)CCSc1nc(O)c(Cc2ccccc2)c(=O)n1-c1ccccc1,1%,-32%,0.2%,4%,1.3,0.4%,-2.3
Cc1ccc(Cl)cc1N1CCN(S(=O)(=O)c2c(C)[nH]c(C)c2C(=O)N2CCCCC2)CC1,1%,-19%,2.7%,?,5.4,1.0%,6.3
COc1ccccc1C1(O)CCN(C(=O)c2cccs2)CC1,3%,19%,-2.1%,5%,0.6,0.0%,-0.9
COc1ccc(-c2nc(CCNC(=O)c3cccs3)cs2)cc1,5%,-138%,-19%,-29%,0.3,-0.5%&0.6%,-0.6
COc1cc(C(=O)N(Cc2cccc(Cl)c2)C2CCS(=O)(=O)C2)cc(OC)c1OC (stereo not drawn),5%,2%,-0.9%,-8%,6.4,-2.1%,-1.3
CC1CC(OCC(O)CN2CCOCC2)CC(C)(C)C1 (stereo not drawn),3%,1%[15.4 µM],-1.9%,9%,-1.0,-2.1%,1.1
O=C(CCc1ccccc1)Nc1sc2c(c1C(=O)O)CCCC2,nt,-35%[inhibitor],-4.8%,?,nt,1.3%,-0.3
O=C(Nc1ccc2c(c1)OCO2)c1ccc(Cl)c(S(=O)(=O)N2CCOCC2)c1,28%,-39%[inhibitor],6.9%,-6%,nt,3.7%,-3.3
CC1CCCCN1S(=O)(=O)c1ccc([N+](=O)[O-])cc1 (stereo not drawn),11%,3%,-2.2%,-1%,-2.0,1.9%,5.3
COCCn1nnnc1CN1CCC(C)CC1,13%,0%,-0.8%,7%,1.9,-0.1%,0.9
C#CCNC(=O)C1=C[C@H](c2ccc(Br)cc2)C[C@H](OCc2ccc(CO)cc2)O1,6%,nt,0.4%,-11%,-0.1,0.0%,4.2
CC(/C=N/NC(=O)CN1CCN(Cc2ccc(Cl)cc2)CC1)=C\c1ccco1,-7%,8%,-4.7%,-2%,2.7,1.2%,0.5
COCCn1c(SCc2ccc(C)cc2)nc2c1c(=O)[nH]c(=O)n2C,nt,3%,-0.1%,9%,nt,-0.1%,-3.2
O=C(CC1Sc2ccccc2NC1=O)NNc1ccc(Cl)c(Cl)c1 (stereo not drawn),nt,-24%,nt,-11%,nt,9.3%,2.3
Cc1onc(-c2ccccc2Cl)c1C(=O)OCC(=O)c1ccc[nH]1,nt,14%,0.6%,1%,nt,2.9%,1.7
CCc1nc(SC)[nH]c(=O)c1C,-11%,3%,-0.4%,-2%,0.9,-0.9%,0.4
CCN1CCN(C(=O)/C=C/c2ccc(C)cc2)CC1,21%,2%,-0.7%,-1%,0.6,-0.4%,2.2
COc1cc2cc(C(=O)O)[nH]c2c(OC)c1OC,10%,-47%,28µM*,3%,4.5,?,-0.5
C/C(CCC1CC(C)OC1=O)=N\NC(N)=S (stereo not drawn),5%,-14%,0.4%,13%,-0.7,0.9%,1.9
COc1ccc(N2C(=O)CC(Sc3n[nH]c(-c4ccccc4)n3)C2=O)cc1 (stereo not drawn),35µM*,12%[15.4 µM],0.3%,5%,6.2,0.1%,1.2
CC(=O)N1CCN(C(=O)CNC(=O)c2cccs2)CC1,nt,2%,-4.0%,-11%,nt,0.0%,-5.8
COc1cc2[nH]c(C(=O)N3CCN(C)CC3)cc2c(OC)c1OC,5%,17%,-7.9%,7%,-4.7,-0.4%,-2.9
Cn1c(=O)c2[nH]c(CN3CCCCC3)nc2n(C)c1=O,nt,?,nt,8%,nt,2.1%,7.1
COc1ccccc1NC(=O)Nc1ccc(CC#N)cc1,4%,11%,3.7%,-5%,1.8,6.2%,-5.9
Cc1c(C(=O)C(=O)N2CC=C(c3ccccc3)CC2)c2ccccc2n1C,-2%,30%,-1.6%,13%,6.7,1.5%,3.0
COc1ccc(OC)c(/C=N/NC(=O)C(=O)NCc2cccnc2)c1,-3%,-13%[15.4 µM],-1.6%,7%,3.0,0.6%,-0.3
CCN(CC)c1ccc(NC(=O)c2ccccc2OCC(=O)OC)cc1,-7%,15%,-2.3%,-11%,-0.9,-1.0%,-3.0
CCOc1cccc(NC(=O)c2ccc(S(=O)(=O)N3CCCC3)cc2)c1,9%,-30%[inhibitor],-2.2%,-18%,4.0,0.6%,-2.7
Cc1cc(F)ccc1S(=O)(=O)N1CCCOC1CNC(=O)C(=O)NCCc1c[nH]c2ccccc12 (stereo not drawn),28%,0%,-2.5%,-18%,5.9,-0.6%,4.0
CCOc1ccc(NC(=O)CN(C)C(=O)CCCn2c(=O)oc3ccccc32)cc1OCC,nt,-2%,-1.7%,-5%,nt,-0.7%,-7.6
Cc1ccc(C2C(C(=O)c3cccs3)=C(O)C(=O)N2c2ccc(S(N)(=O)=O)cc2)cc1 (stereo not drawn),11%,24%[15.4 µM],nt,11%,5.7,-0.2%,-2.0
O=C1CN(CC(=O)Nc2cccc(Cl)c2Cl)c2ccccc2N1,19%,?,?,3%,9.3,1.3%,-3.4
# The listing continues:
SMILES,Sfp inh,gsp agonist,ClpP mod,gsp antag,Menin MLL FP FL,PINK1 expr mod,D2 ag
Cc1ccc(N2C(=O)N(CC(=O)Nc3ccccc3C(F)(F)F)C(=O)C2C)cc1 (stereo not drawn),nt,4%[15.4 µM],16µM*,10%,nt,-0.1%,-4.3
O=C(NC1CCCCC1)C(c1ccncc1)N(C(=O)c1ccco1)c1ccc(F)cc1 (stereo not drawn),13%,7%[15.4 µM],nt,-6%,nt,1.7%,0.0
Cc1ccccc1NC(=S)N1CCN(Cc2ccccc2)CC1,10%,-28%,nt,5%,3.6,0.0%,0.3
COc1ccc(S(=O)(=O)N(C)CC(=O)Nc2ccc(C(N)=O)cc2)cc1OC,4%,-1%,-0.6%,3%,-4.8,-0.4%,6.4
CCN(CC)S(=O)(=O)c1cccc(-c2nnc(SCC(=O)NC)n2N)c1,6%,-28%,-0.9%,9%,3.1,4.0%,-3.1
C[C@@H]1CN([C@@H](C)CO)C(=O)c2cc(NC(=O)C3CCCCC3)ccc2O[C@@H](C)CCCCO[C@@H]1CN(C)C(=O)CCCN(C)C,nt,-22%,-2.1%,nt,nt,0.8%,-2.4
O=C1OCC/C1=C\NCCCCCCCCN/C=C1\CCOC1=O,nt,-31%[inhibitor],-2.5%,nt,nt,1.5%,-1.8
N#Cc1c(NC(=O)C2CC(c3c(F)cccc3Cl)=NO2)sc2c1CCC2 (stereo not drawn),6%,22%,-8.0%,0%,2.9,2.6%,1.2
